High-throughput results from PubChem.
GIV-Gai inh = GIV-Galpha-i interaction inhibition; P08753; Galpha-i3/FITC-GIV peptide fluorescence polarization, 90 min; active compounds read low; scaled: aluminum fluoride 0%, vehicle 100%; percent of control (FP), % (no concentration beside the values); actives 0.42% (n = 210,000);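 active = replicate mean at 85% of control or lower, very high polarization wells dropped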;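 also: wells of about 15 µL received 100 nL stock; the first replicate is given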
Target sequence (P08753 whole entry, looked up): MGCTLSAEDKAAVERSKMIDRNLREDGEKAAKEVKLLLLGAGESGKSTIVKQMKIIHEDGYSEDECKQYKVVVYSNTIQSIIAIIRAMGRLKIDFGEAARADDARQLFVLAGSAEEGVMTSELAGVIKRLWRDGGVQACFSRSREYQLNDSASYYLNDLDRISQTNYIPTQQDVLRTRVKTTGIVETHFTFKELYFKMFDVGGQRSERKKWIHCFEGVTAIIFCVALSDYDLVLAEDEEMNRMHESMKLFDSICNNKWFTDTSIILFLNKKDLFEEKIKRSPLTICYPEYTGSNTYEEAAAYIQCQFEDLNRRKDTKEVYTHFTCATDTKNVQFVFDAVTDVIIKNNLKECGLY
Sa growth inh = inhibitors of Staphylococcus aureus growth at 42 °C; relative growth, % (test concentration not listed); S. aureus RN4220 growth, OD600, 20 h; active compounds read low; actives 0.53% (n = 170,000);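 active = growth at 42 °C up to 50% and 20 or more points under that at 30 °C, or under 10% at both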;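 also: 300 nL library stock went into each well; scaled to the means of positive and negative controls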
HCMV UL50-53 inh = cytomegalovirus nuclear egress complex inhibition; actives 0.15% (n = 190,000); inhibition, % (test concentration not listed); HTRF UL50-UL53 interaction, normalized percent inhibition;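 active = both replicates at 50% or more, plus weaker picks with an unusually low signal ratio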;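 also: stock transfer was 100 nL into about 20 µL; 0% = negative control wells and 100% = wells with untagged competitor protein; inactives centre near -12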
Sa growth inh second temp = further read-out of Sa growth inh, marked with its call; relative growth, %; measured here: growth at 30 °C;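 optical density after 20 h as mean of two plates; 100% = untreated growth and lower means inhibition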
* marks the source's active call; other numbers are inactive results; x = not tested or not shown; & = joins results of further samples.

compound	GIV-Gai inh	Sa growth inh	Sa growth inh second temp	HCMV UL50-53 inh
Cc1c(-c2cccc(NC(=O)CCC3CCCC3)c2)nc2ncccn12	102.1	90.3	80.0	-5.5
O=C1c2cccc3cccc(c23)C(=O)N1CCN1CCN(S(=O)(=O)c2ccc(Cl)cc2)CC1	105.8	x	x	-7.4
CN1CCN(S(=O)(=O)c2cc(-c3ccc(=O)[nH]n3)ccc2Cl)CC1	98.0	x	x	-48.5
Cc1cc2c(cc1N)OCCO2	104.5	91.2	71.0	8.0
O=C(O)CCCC(=O)c1c[nH]c2ccccc12	x	94.4	88.7	-12.6
COC(=O)C1=C(C)N=c2s/c(=C\c3cccc(Br)c3)c(=O)n2C1c1ccc(OC)cc1 (stereo unspecified)	108.3	x	x	-13.2
CCC1CCC(N(CC)CCN(C)C)CC1 (stereo unspecified)	108.0	108.5	119.7	7.0
CC(=O)Nc1ccc(S(=O)(=O)N2CCN(c3cccc(Cl)c3)CC2)cc1	95.0	x	x	-13.4
COc1cc(OC)cc(C(C)(C)OC(=O)N2CCC[C@H]2C(=O)O)c1	107.7	91.0	88.4	-26.5
COC(=O)C1=CN(C23CC4CC(CC(C4)C2)C3)C=C(C(=O)OC)C1c1cccc(OC)c1	101.1	84.1	91.6	x
NC(=S)NCCc1ccccc1	x	95.1	88.8	-8.8
CCc1ccc(NC(=O)Cn2nc(CC)n3c(cc4cc(C)ccc43)c2=O)cc1	106.7	111.2	79.0	-7.5
COC(=O)c1nn(C)c(=O)c2ccccc12	x	94.1	99.5	-19.2
CC1CCN(c2oc(-c3ccc(COc4ccccc4)o3)nc2C#N)CC1	99.0	90.8	82.0	-39.9
Cc1nnc(SCc2ccc(Cl)cc2)c2cc3occc3n12	106.4	75.7	54.1	x
Cc1cc2ncn(CCCCOc3ccccc3)c2cc1C	100.0	84.6	3.2	-0.9
CCOc1ccccc1C1N=C(N)Nc2nc3ccccc3n21 (stereo unspecified)	108.6	104.8	88.9	0.5
Cc1nc(C(F)(F)F)ccc1-c1nnc(SCCCN2C(=O)c3ccccc3C2=O)o1	102.8	93.7	86.3	-17.3
Cc1nc2sc(-c3ccccc3)cc2c(=O)o1	96.3	110.8	82.5	18.4
CCc1ccc(NC(=O)CCNS(=O)(=O)c2ccc3c(c2)CC(C)N3C(C)=O)cc1 (stereo unspecified)	106.7	101.9	88.0	-26.0
CN1CCN(C2=NC(C(=O)Nc3ccccc3)CC(=O)N2)CC1 (stereo unspecified)	108.9	97.4	100.4	10.3
CN(C)c1cccc(N(C)C)c1CNC(=O)c1ccccc1Cl	105.4	92.6	76.0	-11.7
Cc1nn(-c2ccccc2)c2sc(C(=O)NCc3cccnc3)cc12	x	131.3	77.7	-11.4
CC(C)c1ccc(NC(=S)N2CCCC(c3ccc(F)cc3)=N2)cc1	96.5	95.8	90.0	-3.1
C=CCn1c(=O)c2ccc(C(=O)NC(C)C)cc2n2c(=O)n(CC(=O)NCc3ccc(C)cc3)nc12	107.1	x	x	-26.0

(more compounds)
compound	GIV-Gai inh	Sa growth inh	Sa growth inh second temp	HCMV UL50-53 inh
CC(Sc1nc(N)cc(=O)[nH]1)C(=O)Nc1nc2ccccc2s1 (stereo unspecified)	101.4	93.0	74.6	-10.4
O=C(CSCC(=O)N1CCCCC1)Nc1nc(-c2cccs2)cs1	103.8	98.2	87.3	-25.1
COc1cc(Nc2ncc3c(n2)CCN(Cc2cccc(C)c2)C3)cc(OC)c1	103.4	115.6	99.8	x
Cc1ccc(-c2noc(CN(C)C(=O)CCN3C(=O)C4CC=CCC4C3=O)n2)cc1 (stereo unspecified)	111.6	98.7	106.5	-7.9
CC1CCC(NC(=O)CSc2ccc(S(=O)(=O)N(C)C)cn2)CC1 (stereo unspecified)	x	91.1	88.5	-5.9
NN1C(=O)CSC1=Nc1ccccc1	99.5	103.8	93.6	-6.8
CCCCC(=O)N1CCN(c2nc3c(C)c(C)ccc3s2)CC1	102.0	128.9	90.0	x
CCc1ccc(CNC(=O)CCCN2C(=O)c3cccnc3Oc3ccc(Cl)cc32)cc1	101.8	129.1	93.6	x
Cc1cccc(C)c1NC(=O)CS(=O)CC(=O)Nc1ccc(F)c(F)c1 (stereo unspecified)	102.8	109.1	87.8	-25.5
COc1ccc(-n2nc(C(=O)N(C)c3ccc(OC)cc3OC)c3c4ccccc4n(C)c3c2=O)cc1	98.4	106.6	95.3	0.2
Cc1oc(-c2ccc(Cl)cc2)nc1CN1CCC(C(=O)NCCCN2CCN(c3cccc(Cl)c3)CC2)CC1	104.7	98.1	89.4	-37.5
Cc1cc(C)n(-c2nc3cc(Cl)ccc3nc2NC2CCCC2)n1	111.4	x	x	-5.8
CCOc1ccc(-n2c(=O)[nH]c3sc4c(c3c2=O)CCC4)cc1	104.7	91.5	77.3	-10.6
Cc1cc2oc(=O)cc(Cn3nnc(-c4ccc(F)cc4)n3)c2cc1C	x	84.4	95.6	-20.1
O=S1(=O)CCC(SSC2CCS(=O)(=O)C2)C1 (stereo unspecified)	x	89.3	91.8	-5.5
COc1ccc(C(=O)NCC(c2ccc(N(C)C)cc2)N(C)C)cc1 (stereo unspecified)	98.9	x	x	-4.5
O=C(CSc1c(-c2ccccc2)c2cc(Cl)ccc2[nH]c1=O)N1CCCCC1	100.2	111.0	90.5	-2.1
Cc1noc(C)c1S(=O)(=O)N(CC(=O)Nc1ccc(C(F)(F)F)cc1)c1ccc(C(C)C)cc1	111.8	99.6	90.1	-31.1
COc1ccc(Cl)cc1NC(=O)Cc1noc2ccccc12	109.5	x	x	-4.7
COc1ccc(C)cc1NC(=O)Nc1ccccc1OCc1cc(=O)n2ccccc2n1	103.5	98.6	90.0	x
CCn1cc(C(=O)Nc2ccccc2Br)c(=O)c2cc(F)c(N3CCN(C(C)=O)CC3)cc21	x	85.2	81.7	-20.0
CCc1nc(N)c(C#N)c(-c2ccccc2)c1C	x	102.6	85.5	-5.7
COC(=O)c1ccc(C2Nc3c(C)cccc3-c3cc(C)nn32)cc1 (stereo unspecified)	103.7	100.6	101.2	4.7
CCN(CC)c1nc(SCCOC(=O)Nc2ccccc2)nc(N(CC)CC)n1	102.0	89.3	92.4	3.0
CCc1ccccc1NC(=O)COC(=O)c1cn(CC)c2nc(C)ccc2c1=O	99.5	79.7	95.7	15.1

Continued:
compound	GIV-Gai inh	Sa growth inh	Sa growth inh second temp	HCMV UL50-53 inh
CN(C(=O)COC(=O)c1cnc(Cl)c(Cl)c1)c1ccccc1	x	106.1	82.6	-15.7
O=C(Oc1ccc(-c2nnco2)cc1)C1=CC=CN2CCS(=O)(=O)N=C12	x	107.2	85.7	-35.3
COc1ccc(C2CC(=O)C3=C(C2)Nc2onc(C)c2C3c2cccc(C)c2)cc1OC (stereo unspecified)	106.8	x	x	-17.7
O=C(NCC(c1ccccc1)c1c[nH]c2ccccc12)Nc1ccc(Cl)cc1 (stereo unspecified)	104.7	x	x	6.6
Cc1ccc(NC(=O)CN2C(=O)OC(C)(C)C2(C)O)cc1 (stereo unspecified)	99.0	100.1	83.7	-26.7
Cc1ccccc1NC(=O)Cn1cc(S(=O)(=O)c2ccccc2)c(=O)c2ccccc21	101.8	111.0	86.8	-27.6
Cc1cccc(Nc2ccncc2S(=O)(=O)NC(=O)NC(C)C)c1	x	95.8	93.0	-40.4&-9.0
COc1ccc(N=c2oc3ccccc3cc2C(=O)Nc2ccccc2OC)cc1	103.8	x	x	-8.9
CCCN(CC1CC1)C(=S)Nc1cccc(C)c1C	x	86.7	87.2	-14.6
O=C(c1cnc2ccc(F)cc2c1Nc1ccccc1Br)N1CCCCC1	97.0	x	x	-22.8
COc1ccc(C2=NN(S(C)(=O)=O)C(c3cn(-c4ccccc4)nc3-c3ccccc3)C2)cc1 (stereo unspecified)	103.5	x	x	-29.3
CCOc1ccc(-c2cn3c(n2)sc2cc(C(=O)NCCCc4ccccc4)ccc23)cc1	107.7	100.6	91.5	x
CC1OS(=O)OC1(c1ccccc1)c1ccccc1 (stereo unspecified)	x	109.0	102.0	-9.5
Cc1ccc2nc(SCc3ccccc3C#N)[nH]c2c1	98.7	107.1	76.5	-22.9
CCNc1ccc(OC)cc1	103.4	100.4	89.7	-27.0
COc1ccc(C(=O)Nc2nnc(SCc3cc(=O)n4[nH]cnc4n3)s2)cc1	105.7	x	x	-19.7
CCOC(=O)c1cnc(N2CCN(c3ccc(C)cc3C)CC2)c2ccccc12	104.8	88.5	97.6	x
COc1ccc(NC(=O)C(CC(C)C)NS(=O)(=O)c2ccc3c(c2)oc(=O)n3C)cc1 (stereo unspecified)	103.7	103.4	86.6	-14.3
O=C(O)CCCc1ccc(/C=N/O)s1	105.4	97.6	107.0	0.6
NC1=NC(=O)CC(C(=O)Nc2ccc(Br)cc2)S1 (stereo unspecified)	105.5	74.0	99.8	x
CC1OCN(c2ccc(OC(F)(F)F)cc2)Cn2c1nc1ccccc12 (stereo unspecified)	106.7	92.5	80.3	-22.8
COc1cc2c(cc1OC)C1N(CC2)C(C(=O)c2cccs2)=NN1c1ccccc1 (stereo unspecified)	100.1	107.8	90.3	-75.6
Cc1cc(/C=C2\SC(=O)N(Cc3ccc(Cl)cc3)C2=O)c(C)n1-c1cccnc1	105.0	x	x	-19.3
O=C(Cc1ccccc1)Nc1ccc(-c2cn3cccnc3n2)cc1	110.4	79.5	82.0	x
COc1ccc(CNC(=O)c2cc(-c3ccc(OC)cc3)on2)cc1	111.4	105.8	117.2	25.8

Record cards (already shown).
Shown for CC(Sc1nc(N)cc(=O)[nH]1)C(=O)Nc1nc2ccccc2s1 (stereo unspecified) → GIV-Gai inh: 101.4; Sa growth inh: 93.0; Sa growth inh second temp: 74.6; HCMV UL50-53 inh: -10.4
Shown for CCc1ccc(CNC(=O)CCCN2C(=O)c3cccnc3Oc3ccc(Cl)cc32)cc1 → GIV-Gai inh: 101.8; Sa growth inh: 129.1; Sa growth inh second temp: 93.6; HCMV UL50-53 inh: x
Shown for Cc1nc(C(F)(F)F)ccc1-c1nnc(SCCCN2C(=O)c3ccccc3C2=O)o1 → GIV-Gai inh: 102.8; Sa growth inh: 93.7; Sa growth inh second temp: 86.3; HCMV UL50-53 inh: -17.3

The list continues.
compound	GIV-Gai inh	Sa growth inh	Sa growth inh second temp	HCMV UL50-53 inh
O=C(CSC1=Nc2ccccc2N=C(c2ccc(F)cc2)C1)NCc1ccc(F)cc1	104.0	109.8	89.1	x
COC(=O)c1cc2occc2n1Cc1nc(-c2ccc(C)cc2)oc1C	103.9	112.3	93.4	-20.4
CCOc1ccc(NC(=O)c2cc3c(-c4ccccc4F)nn(C)c3s2)cc1	103.6	98.0	94.5	10.2
CCOC(=O)c1c(C=O)oc2c(C)cc(OC(=O)c3cc(Cl)cc(Cl)c3)c(Br)c12	99.3	x	x	-5.3
Brc1ccccc1-c1noc(CSc2ccc(-c3ccc4c(c3)OCO4)nn2)n1	108.2	x	x	9.7
CC1CC(C)CN(c2c3c(nc4cc(-c5ccc(F)cc5)nn24)CCC3)C1 (stereo unspecified)	101.0	94.9	81.4	0.0
COC(=O)CNC(=O)N1CCCC1c1ccc(F)cc1 (stereo unspecified)	100.2	x	x	8.7
O=c1cc(C(F)(F)F)c2cc(Cl)c(O)cc2o1	-94.0*	100.8	18.1	-43.9
COc1cc(Nc2nc(-c3ccc(OC)c(OC)c3)nc3ccccc23)cc(OC)c1	109.4	81.0	51.0	-42.6
Clc1ccc(OCc2ccc(-c3csnn3)cc2)cc1	94.9	100.3	54.0	-2.2
Cc1cccc(-n2c3nc(=O)[nH]c(=O)c-3cc3c(C)nn(-c4ccccc4)c32)c1C	102.8	99.8	89.4	-32.3
c1ccc(Nc2nc(-c3ccncc3)cs2)cc1	110.7	103.3	79.3	-10.1
Cc1ccc2[nH]cc(C(c3ccccc3)c3cccs3)c2c1 (stereo unspecified)	103.6	100.7	74.4	-26.4
COc1cccc2[nH]ccc12	105.1	97.3	78.3	-14.7
CC(C)OCCCNC(=O)CNC(=O)C1(C)Cn2c(cc3ccccc32)C(=O)N1C (stereo unspecified)	106.2	x	x	-9.0
Cc1cc(C(=O)N2CCC(C)CC2)c(C)n1-c1ccc(F)cc1	x	98.5	95.2	-10.9
CCCn1c(=O)sc2cc(NS(=O)(=O)c3ccc4c(c3)n(C)c(=O)n4C)ccc21	99.1	x	x	15.8
Cc1nnsc1C(=O)Oc1ccccc1Cl	102.5	109.6	88.7	-10.8
CN(CCOc1ccccc1)CCOc1ccccc1	x	118.2	98.1	4.7

Some of these compounds in order of heavy-atom count, low to high:
compound	GIV-Gai inh	Sa growth inh	Sa growth inh second temp	HCMV UL50-53 inh
CC1CC(C)CN(c2c3c(nc4cc(-c5ccc(F)cc5)nn24)CCC3)C1 (stereo unspecified)	101.0	94.9	81.4	0.0
Brc1ccccc1-c1noc(CSc2ccc(-c3ccc4c(c3)OCO4)nn2)n1	108.2	x	x	9.7
Cc1cccc(-n2c3nc(=O)[nH]c(=O)c-3cc3c(C)nn(-c4ccccc4)c32)c1C	102.8	99.8	89.4	-32.3
COc1cc(Nc2nc(-c3ccc(OC)c(OC)c3)nc3ccccc23)cc(OC)c1	109.4	81.0	51.0	-42.6
